Sfp inh – qHTS Assay for Inhibitors of Bacillus subtilis Sfp phosphopantetheinyl transferase (PPTase); Biochemical Sfp PPTase activity, qHTS; Potency, µM, inactives show max response, negative = inhibition, usual class: inhibitors; 310,000 compounds, 3.5% hits; AID 1490, 2009; active means well fitted inhibition curve with a large enough effect; inconclusive means small, poorly fitted or top-dose-only effect, or another doubt; inactive means no such curve, though single readings can be large or run the other way;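 further: the enzyme is Sfp with the accession as filed and its product quenches rhodamine fluorescence; potency means the concentration at half of the fitted maximal effect; 0% = enzyme reaction without inhibitor and -100% = no enzyme wells; top concentration of the series not given in the record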
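Buffer: 50 mM Hepes-Na pH 7.6, 10 mM MgCl2, 0.01% Nonidet P-40, 0.01% BSA. Enzyme 15 nM, pre-exposed to compound 15 min; substrates then added and fluorescence change tracked over 30 min.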
Menin-MLL FL inh – qHTS Assay for Inhibitors Targeting the Menin-MLL Interaction in MLL Related Leukemias: Competition With Fluorescein Labeled MLL-derived Peptide. Fluorescence polarization, fluorescein-MLL peptide displacement from menin. FP activity change, % at 61.4 µM. 290,000 tested, under 10 active; inconclusive = falling polarisation curve, or a change in total fluorescence; inactive = total fluorescence flat and polarisation flat or rising; no compound was filed as active; the % refers to the polarisation; negative = inhibition;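 further: % of control where 0% means no effect; inhibitors lower the polarisation; unlabelled MLL peptide was the positive control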
The depositor's hits bear a star; & = joins results of further samples; [ ] = dose if it differs, or a comment.

`CCC1=C2CC[C@H]3C(=O)N(CC)C(=O)[C@H]3[C@H]2[C@@]2(Cc3ccccc3)C(=NCC3CC3)OC(=O)N2C1=O` gave Sfp inh 27% and Menin-MLL FL inh 0.9.
For CC/C=C\C/C=C\C/C=C\C/C=C\C/C=C\CCCCCC(=O)O the results were Sfp inh inconclusive and Menin-MLL FL inh 2.0.
`Oc1ccc2c(c1-c1c(O)c(Br)cc3c1CCCC3)CCCC2` gave Sfp inh inconclusive and Menin-MLL FL inh 4.7.
For COCCNc1nc(-c2ccccc2C(F)(F)F)nc2ccccc12 the results were Sfp inh 8% and Menin-MLL FL inh 1.7.
For O=c1c(-c2ccc(F)cc2)nc2cnc(Nc3ccccc3)nc2n1C[C@H]1CCCO1 the results were Sfp inh 2% and Menin-MLL FL inh -5.8.
For O=C1N[C@@H](Cc2c[nH]c3ccccc23)C(=O)N[C@H]1Cc1c[nH]c2ccccc12 the results were Sfp inh -1% and Menin-MLL FL inh 0.0.
For O=C(Cc1ccc(Cl)cc1)c1c(O)cc(O)cc1O the results were Sfp inh -16% and Menin-MLL FL inh -18.
For CO[C@H]1COC(=O)CCC[C@H](C)[C@H](OC)COC(=O)C/C=C\[C@@H]1C the results were Sfp inh 8% and Menin-MLL FL inh -2.8[11.7 µM].
CN(C)c1ncc2nc(-c3cn(C)c4ccccc34)c(=O)n(C[C@H]3CCCO3)c2n1 was read as Sfp inh 17% and Menin-MLL FL inh inconclusive.
Screening CCCCc1ncc(/C=C(\Cc2cccs2)C(=O)O)n1Cc1ccc(C(=O)O)cc1 returned Sfp inh 10% and Menin-MLL FL inh -0.6.
COc1ccc2c(c1)O[C@@H](c1cccc(C(F)(F)F)c1)[C@H](OC(=O)N[C@H](C)C1CCCCC1)C2=O was read as Sfp inh 2% and Menin-MLL FL inh 0.5.
`O=c1c(-c2cccs2)nc2cnc(N3CCNCC3)nc2n1CCc1ccccc1` gave Sfp inh inconclusive and Menin-MLL FL inh inconclusive.
For CCCCNc1nc(C)nc2c1nc(-c1ccccc1)n2CCCN1CCCCC1C (centres undefined) the results were Sfp inh 24% and Menin-MLL FL inh 5.1.
COc1ccccc1-c1nnc2n1N=C(c1c(OC)cccc1OC)CS2 was read as Sfp inh -4% and Menin-MLL FL inh -1.9.
Screening CN(C)Cc1ccccc1-c1cncnc1Nc1ccccc1 returned Sfp inh 11% and Menin-MLL FL inh -7.6.
NC(N)=NCCN1CCCCCCC1 was read as Sfp inh -8%&23% and Menin-MLL FL inh -0.7.
Screening COc1ccc(-n2c(=O)c(C)nc3cnc(N4CCNCC4)nc32)cc1 returned Sfp inh 14% and Menin-MLL FL inh 14.
`CCCCNc1nc(C)nc2c1nc(-c1ccccc1)n2CC1CCN(C)CC1` gave Sfp inh 12% and Menin-MLL FL inh 3.0.
For O=C(c1ccc2c(c1)OCO2)N1CCCCC1 the results were Sfp inh -4%&10% and Menin-MLL FL inh -4.5&-12.
For C[C@@]12CCC(=O)C[C@@H]1CC(=O)[C@H]1[C@H]3CCC[C@]3(C)C(=O)C[C@@H]12 (tested in a mixture with another compound) the results were Sfp inh 9% and Menin-MLL FL inh 1.9[24.8 µM].
CCc1cc2c(nc1CC)CCN(CC/C(C)=N/O[C@@H](C)CN1CCCCc3nc(C)c(C)cc31)C2 was read as Sfp inh 2% and Menin-MLL FL inh 2.5[11.7 µM].
For O=C(O)[C@H]1CCCNC1 the results were Sfp inh 11% and Menin-MLL FL inh -15.
O=C(N/N=C1/C[C@@H](O)[C@@H](O)[C@@H]2[C@@H]3C(=O)N(c4cccc(Oc5ccccc5)c4)C(=O)[C@H]3CC[C@@H]12)OCc1ccccc1 was read as Sfp inh 5% and Menin-MLL FL inh 3.9[11.7 µM].
For N[C@H](Cn1ccc(=O)c(O)c1)C(=O)O the results were Sfp inh -3%&24% and Menin-MLL FL inh 20.
Screening CCNc1ncc2nc(C)c(=O)n(Cc3cccs3)c2n1 returned Sfp inh 21% and Menin-MLL FL inh 3.8.
`O=C(c1ccncc1)N1CCC[C@@]2(CCN(c3ccccn3)C2)C1` gave Sfp inh 4% and Menin-MLL FL inh -5.4.
Screening O=C(c1cc(C(F)(F)F)cc(C(F)(F)F)c1)N1CCC2(CC1)CN(c1ncccn1)C2 returned Sfp inh 0% and Menin-MLL FL inh -3.5.
For CC(=O)N1CC2(CC2)CC1c1ccccc1 (centres undefined) the results were Sfp inh 17% and Menin-MLL FL inh -4.9.
`C[C@H]1CC[C@H](C(=O)O)N[C@@H]1c1ccc(C#Cc2ccccc2)cc1` gave Sfp inh -5% and Menin-MLL FL inh -0.4[11.7 µM].
Screening CCC(CCC(C)C1CCC2C3CC=C4CC(O)CC[C@@]4(C)C3CC[C@@]12C)C(C)C (some centres undefined) returned Sfp inh 17% and Menin-MLL FL inh 0.5.
Screening COC(=O)CCC(C)C1CCC2C3C(O)C[C@@H]4CC(O)CC[C@@]4(C)C3CC(O)[C@]12C (some centres undefined) returned Sfp inh -12% and Menin-MLL FL inh -4.1.
Screening O=C(c1ccco1)N1CCC[C@@]2(CCN(c3cccc(-c4ccccc4)c3)C2)C1 returned Sfp inh -12% and Menin-MLL FL inh 19.
For O=C1NC[C@H](c2ccccc2)N1 the results were Sfp inh -13% and Menin-MLL FL inh -0.3.
`COc1ccc(Oc2ncc3nc(-c4ccccc4)c(=O)n(Cc4cccs4)c3n2)cc1` gave Sfp inh 6% and Menin-MLL FL inh -2.8.
For CC(C)/C(O)=C1/C(=O)OC(c2ccoc2)[C@@]2(C)C(O)C(O)[C@@]34OC5(C)OC67CC(C)(C(O)[C@@]6(O)C(O)[C@@]3(O5)C12)C(CC(=O)O)[C@@]74C (some centres undefined) the results were Sfp inh 9% and Menin-MLL FL inh 0.7.
COC(=O)N1CCC2(CC1)CCN(c1ncccn1)CC2 was read as Sfp inh 11% and Menin-MLL FL inh -0.3.
For CCCn1c(-c2ccc(F)cc2)nc2c(NCCCCN(CC)CC)nc(C)nc21 the results were Sfp inh 5% and Menin-MLL FL inh -6.0.
COc1ncc2nc(-c3cn(C)c4ccccc34)c(=O)n(C[C@H]3CCCO3)c2n1 was read as Sfp inh 20% and Menin-MLL FL inh -14.
`O=C(Nc1cccc(F)c1)N1CCCC2(CCN(C(=O)c3cnccn3)CC2)C1` gave Sfp inh -3% and Menin-MLL FL inh 2.6.
For CCNc1ncc2nc(-c3cccs3)c(=O)n(Cc3cccs3)c2n1 the results were Sfp inh -24% and Menin-MLL FL inh inconclusive.

Three structures from above, arranged by heavy-atom count, highest first:
`COc1ccc(Oc2ncc3nc(-c4ccccc4)c(=O)n(Cc4cccs4)c3n2)cc1` gave Sfp inh 6% and Menin-MLL FL inh -2.8.
For CCNc1ncc2nc(-c3cccs3)c(=O)n(Cc3cccs3)c2n1 the results were Sfp inh -24% and Menin-MLL FL inh inconclusive.
COC(=O)N1CCC2(CC1)CCN(c1ncccn1)CC2 was read as Sfp inh 11% and Menin-MLL FL inh -0.3.

More compounds follow.
`CC(CSC(=O)c1ccccc1)C(=O)N1C[C@@H](Sc2ccccc2)C[C@H]1C(=O)O` (some centres undefined) gave Sfp inh 20% and Menin-MLL FL inh 1.4.
`Fc1ccc(Nc2ncncc2-c2ccoc2)cc1` gave Sfp inh -3% and Menin-MLL FL inh -11.
`COc1cc2c(cc1O)C(Cc1ccc(O)cc1)[N+](C)(C)CC2` (centres undefined) gave Sfp inh -47% and Menin-MLL FL inh 2.1.
O=C(O)Cn1c(C(=O)Nc2nc(-c3ccccc3Cl)cs2)cc2ccccc21 was read as Sfp inh 20% and Menin-MLL FL inh -2.0.
`O=S(=O)(c1ccccc1)N1CCC[C@@]2(CCN(c3cccc(-c4ccccc4)c3)C2)C1` gave Sfp inh 6% and Menin-MLL FL inh 10.
`C[C@@]12CC[C@@H]3c4ccc(O)cc4CC[C@H]3[C@H]1C[C@@H](O)[C@H]2O` gave Sfp inh 35%[activator] and Menin-MLL FL inh 6.5[24.8 µM].
`COc1ccc(O[C@H]2C=C[C@@H](c3ccccc3)O[C@H]2CO/N=C2/c3cc(OC)ccc3O[C@@H](c3cccc(OC)c3)[C@H]2O)cc1` gave Sfp inh -11% and Menin-MLL FL inh -3.5[11.7 µM].
`CCCCC[C@H](O)/C=C\[C@H]1[C@H](C/C=C\CCCC(=O)O)[C@@H](O)C[C@H]1O` (tested in a mixture with another compound) gave Sfp inh 25% and Menin-MLL FL inh -0.7[24.8 µM].
`CSCC[C@H](NC(=O)[C@@H](NC(=O)[C@H](CCC(=O)O)NC(=O)[C@H](CCSC)NC(=O)[C@H](CC(N)=O)NC(=O)[C@H](CCC(=O)O)NC(=O)[C@H](CC(N)=O)NC(=O)[C@H](CO)NC(=O)[C@H](C)N)[C@@H](C)O)C(=O)O` gave Sfp inh -3% and Menin-MLL FL inh -2.4.
CC1(OC(=O)c2cccs2)C(=O)C=C2C=C(c3ccsc3)OC=C2C1=O (centres undefined) was read as Sfp inh 14% and Menin-MLL FL inh 0.4.

Retrieved one by one from the list above, 2 records:
`C[C@@]12CC[C@@H]3c4ccc(O)cc4CC[C@H]3[C@H]1C[C@@H](O)[C@H]2O` gave Sfp inh 35%[activator] and Menin-MLL FL inh 6.5[24.8 µM].
`COc1ccc(O[C@H]2C=C[C@@H](c3ccccc3)O[C@H]2CO/N=C2/c3cc(OC)ccc3O[C@@H](c3cccc(OC)c3)[C@H]2O)cc1` gave Sfp inh -11% and Menin-MLL FL inh -3.5[11.7 µM].

(list continues)
OC[C@H]1OC(O)[C@H](O)[C@@H](O)[C@@H]1O (some centres undefined) was read as Sfp inh 13% and Menin-MLL FL inh -9.6.
`CS(=O)(=O)Nc1cccc(-c2nccc(-n3ccnc3)n2)c1` gave Sfp inh 56µM* and Menin-MLL FL inh 1.4.
COc1ncc2nc(-c3ccc(Cl)cc3)c(=O)n(CCc3ccccc3)c2n1 was read as Sfp inh 7% and Menin-MLL FL inh 7.9.
`CN(C)c1nc(NC2CCC(NC(=O)c3ccc(F)c(F)c3)CC2)nc2ccccc12` (centres undefined) gave Sfp inh -13% and Menin-MLL FL inh -1.1.
For N#Cc1ccc(CN2CCCC3(CCN(C(=O)c4ccco4)CC3)C2)cc1 the results were Sfp inh 6% and Menin-MLL FL inh 5.8.
Screening COc1ccc2[nH]cc(CCNc3cc(-c4ccc5c(c4)OCO5)ncn3)c2c1 returned Sfp inh -28% and Menin-MLL FL inh 5.2.
Screening CCCCc1nc2c(c3c1C[C@H](C)OC3)CN(C(=O)NCCc1c[nH]c3ccccc13)CC2 returned Sfp inh 3% and Menin-MLL FL inh -0.4[11.7 µM].
For CC(=O)ON(C(C)=O)S(=O)(=O)c1ccc(Cl)cc1 the results were Sfp inh inconclusive and Menin-MLL FL inh inconclusive.
For COc1cccc(Cn2c(=O)c(-c3cc(F)cc(F)c3)nc3cnc(N4CCNCC4)nc32)c1 the results were Sfp inh inconclusive and Menin-MLL FL inh -4.0.
`c1csc(CNc2nc(-c3ccc4c(c3)OCO4)nc3ccccc23)c1` gave Sfp inh 7% and Menin-MLL FL inh 0.8.
Screening CC(=O)OC[C@@H]1O[C@H](C/C=N\OC[C@@H](O)COCc2ccco2)C=C[C@@H]1OC(C)=O returned Sfp inh 14% and Menin-MLL FL inh 0.0[11.7 µM].
CCNc1ncc2nc(-c3ccc(OC)cc3)c(=O)n(Cc3cccc(OC)c3)c2n1 was read as Sfp inh 34%[activator] and Menin-MLL FL inh inconclusive.
OCC1OC(c2ccc3c(c2)OCO3)C=CC1Oc1cc(Cl)cc(Cl)c1 (centres undefined) was read as Sfp inh -7% and Menin-MLL FL inh -0.3[11.7 µM].
`COc1ccccc1CNc1cc(-c2ccccc2C)ncn1` gave Sfp inh 3% and Menin-MLL FL inh 1.0.
Screening COC1C[C@@H](O[C@@H]2C(C)C(=O)OC(C)C(C)[C@H](OC(C)=O)C(C)C(=O)[C@@]3(CO3)CC(C)C(OC3OC(C)CC(N(C)C)[C@H]3OC(C)=O)C2C)OC(C)[C@@H]1OC(C)=O (some centres undefined) returned Sfp inh 17% and Menin-MLL FL inh -0.1.
`COc1ccc(CNc2nc(-c3cccc(NS(C)(=O)=O)c3)nc3ccccc23)c(OC)c1` gave Sfp inh -3% and Menin-MLL FL inh -2.4.
Screening N=C(N)SCCc1ccc(OCc2ccc([N+](=O)[O-])cc2)cc1 returned Sfp inh inconclusive and Menin-MLL FL inh -16.
`O=C1[C@H]2[C@H]3[C@H](O)[C@H](O)C/C(=N/OC[C@@H](O)COCc4ccco4)[C@@H]3CC[C@@H]2C(=O)N1c1cccc(Oc2ccccc2)c1` gave Sfp inh -6% and Menin-MLL FL inh 9.3[11.7 µM].
COc1cccc(Nc2ncc3nc(-c4cccs4)c(=O)n(Cc4cccs4)c3n2)c1 was read as Sfp inh -13% and Menin-MLL FL inh inconclusive.
For O=C1CC(c2ccc3c(c2)OCO3)c2cc(O)ccc2O1 (centres undefined) the results were Sfp inh 89µM* and Menin-MLL FL inh 8.6[94.6 µM].
For CSCC[C@H](C=O)NC(=O)[C@H](CC(C)C)NC(=O)[C@H](CC(C)C)NC(C)=O the results were Sfp inh 15% and Menin-MLL FL inh -16.
For CC(=O)Oc1ccc2c(c1C(C)C)CCC1C(C)(C)CCC[C@@]21C (some centres undefined) the results were Sfp inh -9% and Menin-MLL FL inh -1.4.
For CC(=O)OCC(=O)[C@@]1(O)CCC2C3C[C@H](C)C4=CC(=O)C=CC4(C)C3C(O)CC21C (some centres undefined) the results were Sfp inh 12% and Menin-MLL FL inh 2.8.

Not all compounds are listed (hit frequency here may not be typical).
